MbtI inh: inhibitors of Mycobacterium tuberculosis siderophore enzyme MbtI. purified MbtI enzyme, fluorescence intensity read-out. inhibition, %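 (about 17 µg/mL by stock and volumes)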. hit rate 0.89% among 100,000. AID 493033;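 active means above 50% in both replicates, above 80% if mildly self-fluorescent; inactive means the rest, strongly fluorescent compounds included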;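 further: 0% = mean of negative and 100% = mean of positive controls; one replicate is shown; some compounds called inactive have numbers as strong as hits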
Target sequence (P9WFX0 whole entry, looked up): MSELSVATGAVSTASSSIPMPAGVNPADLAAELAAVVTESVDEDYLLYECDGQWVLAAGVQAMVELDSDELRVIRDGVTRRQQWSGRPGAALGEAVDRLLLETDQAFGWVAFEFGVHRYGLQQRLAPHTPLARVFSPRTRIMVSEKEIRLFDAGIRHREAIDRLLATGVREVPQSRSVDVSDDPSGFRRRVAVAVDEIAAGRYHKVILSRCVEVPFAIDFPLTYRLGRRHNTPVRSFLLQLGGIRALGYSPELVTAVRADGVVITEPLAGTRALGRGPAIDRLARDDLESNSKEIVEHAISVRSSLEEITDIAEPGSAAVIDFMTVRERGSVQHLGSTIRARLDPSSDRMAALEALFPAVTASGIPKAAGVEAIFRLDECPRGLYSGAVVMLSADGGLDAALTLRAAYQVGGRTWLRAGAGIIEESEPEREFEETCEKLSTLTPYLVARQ
Mtb MenB inh: Mtb MenB enzyme inhibition; MenB enzyme assay, absorbance read-out; some hits fall short of the stated cut; inhibition, %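 (about 12 µg/mL by stock and volumes)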; hit rate 0.43% among 100,000; AID 540299;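 active means mean of two replicates above 30%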;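 further: 0% = no compound and 100% = wells with inactive enzyme; the first replicate is given; strong numbers were not always called active; inactives centre near -10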
Target sequence (P9WNP5 whole entry, looked up): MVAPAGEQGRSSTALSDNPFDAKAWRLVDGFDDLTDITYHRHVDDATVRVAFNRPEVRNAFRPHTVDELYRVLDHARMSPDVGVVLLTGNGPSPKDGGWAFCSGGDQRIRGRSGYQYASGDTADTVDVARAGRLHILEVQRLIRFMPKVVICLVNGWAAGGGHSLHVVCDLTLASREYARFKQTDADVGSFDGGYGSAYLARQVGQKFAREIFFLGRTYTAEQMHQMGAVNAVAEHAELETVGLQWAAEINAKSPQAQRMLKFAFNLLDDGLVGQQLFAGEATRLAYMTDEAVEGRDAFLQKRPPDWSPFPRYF
Polio RdRp inh: inhibitors of poliovirus RNA polymerase binding and polymerization. hit rate 0.66% among 150,000. poliovirus polymerase elongation, fluorescence polarization; hits give low values. % elongation, % (compound at 16.7 µg/mL). P03300; in the data active means % elongation below about 90%; further: some results filed as inactive read as strong as hits
Polio RdRp inh intensity: second read-out of Polio RdRp inh, no call of its own (marks repeat the call); % elongation; measured here: total intensity read-out; formula for this scale not given here;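 total fluorescence in place of polarization; lower means less elongation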
* marks the source's active call; other numbers are inactive results; / = no result given. Outcome played no part in choosing rows. Share with any hit: about 1.8%.

No.	mol	MbtI inh	Mtb MenB inh	Polio RdRp inh	Polio RdRp inh intensity
1	O=c1oc2ccccc2c(O)c1NS(=O)(=O)c1ccc2c(c1)CCCC2	9.9	-23.5	104.0	106.0
2	N#C/C(=C\N1CCCC1)S(=O)(=O)c1ccc(Cl)cc1	3.8	14.2	100.0	98.0
3	CCc1ccc(OCC(=O)Nc2ccc(S(N)(=O)=O)cc2)cc1	-4.2	17.2	101.0	103.0
4	CC(C)NC(=O)/C(C#N)=C/c1ccc(-c2ccc(S(=O)(=O)N3CCOCC3)cc2)o1	-5.0	-173.3	108.0	114.0
5	COc1ccccc1OCc1ccc(C(=O)NCc2ccncc2)o1	15.1	-24.0	101.0	100.0
6	O=C(CSC1=NC(=O)C(c2ccccc2)C(=O)N1)Nc1nncs1 (configuration not stated)	-9.4	-12.3	100.0	102.0
7	Cc1cc(C)c(C(=O)CC(N2CCOCC2)C(F)(F)F)c(=O)[nH]1 (configuration not stated)	22.1	9.7	105.0	102.0
8	O=C(CSc1n[nH]c(Cc2ccccc2)n1)NC1CCCCC1	-9.2	-9.3	98.0	102.0
9	COc1ccc(C(=O)NC(Nc2cc(C)on2)(C(F)(F)F)C(F)(F)F)cc1	-6.8	-3.4	100.0	106.0
10	CCOC(=O)CC(=O)Nc1c(NC)c2ccccc2oc1=O	4.4	-9.6	102.0	105.0
11	CC(C)C(=O)NCc1cccnc1	-7.0	/	99.0	95.0
12	CC(NCc1ccc(S(N)(=O)=O)cc1)C(=O)NCc1ccccc1 (configuration not stated)	-11.9	-11.3	101.0	106.0
13	O=c1c2sccc2nc(SCc2cc(=O)n3cc(Br)ccc3n2)n1C1CC1	15.2	7.1	100.0	98.0
14	CCNc1ncnc2c1cnn2-c1ccc(C)c(C)c1	9.8	-5.4	99.0	100.0
15	Nc1c(N(C(=O)c2ccc(Br)o2)C2CCCC2)c(=O)[nH]c(=O)n1Cc1ccccc1	1.2	1.1	102.0	109.0
16	O=C(Cc1coc2ccc3ccccc3c12)NCc1ccco1	68.6	-67.3	102.0	100.0
17	O=C1CCCC/C1=C/Nc1cccc(N/C=C2/CCCCC2=O)c1	/	-29.3	100.0	107.0
18	O=C(Nc1nccs1)c1cccc(NS(=O)(=O)c2ccccc2)c1	-28.4	-23.4	99.0	107.0
19	CCOC(=O)c1cc(-c2ccc(OC)c(S(=O)(=O)NCCN3CCCCCC3)c2)on1	-13.2	-24.2	100.0	102.0
20	CC1(C)CC(N2CCOCC2)CC(C)(C)N1	-4.0	-10.0	99.0	105.0
21	Cc1cc(C)nc(NC(=O)COC(=O)/C=C/c2cccs2)n1	10.7	-25.2	102.0	108.0
22	CC(Oc1ccc(F)cc1)c1nnc(SCC(=O)N2CCNC2=O)o1 (configuration not stated)	-10.4	-10.9	105.0	108.0
23	CCOC(=O)c1c(-c2cccs2)csc1NC(=O)c1ccccc1	11.1	-33.9	106.0	100.0
24	CCOC(=O)C1=C(Nc2ccc(Cl)cc2)OCC1=O	-13.6	1.1	102.0	104.0
25	CC(=O)Oc1cccc(/C=C2\N=C(c3ccco3)OC2=O)c1	0.2	3.9	103.0	100.0
26	O=C(c1ccc(Cl)cc1)N1CCCCC(Sc2nnc(C3CC3)n2C2CC2)C1=O (configuration not stated)	-12.1	0.6	105.0	105.0
27	CCOC(=O)c1c(CC(C)C)csc1NC(=O)c1ccccc1OC(C)=O	5.9	1.4	102.0	105.0
28	CCCCN(CC)C(=O)c1cc(OC)c(OC)c(OC)c1	0.1	-15.2	102.0	102.0
29	CN(CC(=O)Nc1ccc(F)c(F)c1F)C(=O)/C=C/c1ccco1	-5.2	-3.2	96.0	97.0
30	CN(C)c1cccc(C(=O)OCCN2C(=O)c3ccccc3C2=O)c1	69.3	-11.2	103.0	109.0
31	Cc1ccccc1NC(=O)N1CCCC(C(N)=O)C1 (configuration not stated)	0.2	-14.2	100.0	100.0
32	CCCCN(CC)C(=O)C1c2ccccc2Oc2ccccc21	-6.0	-21.0	100.0	102.0
33	Cc1nn(Cc2c(Cl)cccc2Cl)c(C)c1CNCC(c1ccco1)N1CCCC1 (configuration not stated)	4.8	23.8	97.0	101.0
34	O=c1cc(-c2ccc(O)cc2)oc2ccc(O)cc12	2.4	-75.2	101.0	102.0
35	CC(C)n1cc(/C(N)=N/O)c(=O)n(Cc2ccccc2)c1=O	-13.6	-6.4	106.0	110.0
36	N#CCCOC1(C#CC#CC2(OCCC#N)CCCCC2)CCCCC1	-0.6	-18.7	101.0	105.0
37	Cc1cc(-c2csc(NC(=O)C3CCCO3)n2)c(C)n1CCc1ccccc1 (configuration not stated)	-1.6	-13.2	103.0	100.0
38	O=C(Nc1nccc2ccccc12)c1cccs1	-5.2	-5.4	103.0	107.0
39	CCCC(OC(=O)CN1C(=O)COc2ccccc21)C(=O)NC1CCCC1 (configuration not stated)	1.4	9.8	101.0	102.0
40	COc1cc(S(=O)(=O)N(C)C)ccc1F	0.1	1.7	100.0	103.0
41	O=C(NCC1CCCO1)c1nc(-c2cccc(C(F)(F)F)c2)no1 (configuration not stated)	-17.5	-15.4	102.0	105.0
42	Cc1cccc(NC(=S)NCCN2CCOCC2)c1	0.1	-49.6	97.0	104.0
43	CCn1c(CNC(=O)c2ccccc2F)nnc1SCc1nc2ccccc2c(=O)[nH]1	0.6	-2.7	99.0	101.0
44	Cc1onc(-c2ccccc2)c1C(=O)N(C)CCc1ccccn1	-5.8	8.6	108.0	112.0
45	COCCN1C(=O)c2oc3cc(C)c(C)cc3c(=O)c2C1c1ccc(OCC(N)=O)cc1 (configuration not stated)	12.6	10.9	100.0	101.0
46	O=C(NCCN1CCN(c2ccccc2F)CC1)c1cc(C2CC2)[nH]n1	-9.1	8.4	97.0	102.0
47	COc1ccc2cc(Br)ccc2c1CC(=O)NCc1ccco1	10.9	-11.2	101.0	103.0
48	Cc1ccsc1C=Nc1c(F)c(F)c(F)c(F)c1F	-12.4	/	103.0	103.0
49	CCc1c(C)n([O-])c2c([n+]1=O)CCCCC2	21.4	-19.6	103.0	93.0
50	O=C1c2cccnc2C(=O)N1Cc1ccc(S(=O)(=O)NC2CCCCC2)cc1	-5.8	-9.4	105.0	104.0
51	COc1ccc2[nH]c3c(=O)n(CC(=O)NCc4ccco4)c(=S)[nH]c3c2c1	8.4	3.4	99.0	105.0
52	CCOc1ccc(-c2nc3c(c(C)nn3-c3ccccc3)c3cc(OC)c(OC)cc23)cc1	42.0	7.9	102.0	105.0
53	C=CCN(CC=C)CCOc1ccc(Cl)cc1	2.2	-2.5	99.0	100.0
54	O=C(NCCN=C1NS(=O)(=O)c2ccccc21)c1ccncc1	/	-4.6	96.0	97.0
55	CSc1cccc(NC(=O)CSc2ncn[nH]2)c1	0.8	7.6	101.0	104.0
56	O=C1OCCC1Sc1nc2cc(Cl)ccc2s1 (configuration not stated)	26.7	-12.7	100.0	105.0

The listing continues.
No.	mol	MbtI inh	Mtb MenB inh	Polio RdRp inh	Polio RdRp inh intensity
57	CC1=CC(=C2C(=O)NC(=S)NC2=O)C=C(C)N1Cc1ccco1	-1.5	-56.4	106.0	106.0
58	CC1CCCCC1N(C)C1CCN(CCCNC(=O)/C=C/c2ccccc2Cl)CC1 (configuration not stated)	1.9	-11.4	101.0	107.0
59	Cc1sc2ncnc(Sc3nnc(-c4cccs4)n3CC3CCCO3)c2c1C (configuration not stated)	-27.7	-21.2	99.0	100.0
60	COc1ccc(C(=O)N2CCSC2=S)cc1	12.9	-15.8	102.0	101.0
61	CCCN(S(=O)(=O)c1ccccc1F)S(=O)(=O)c1ccccc1Br	-2.9	-11.0	100.0	107.0
62	Cc1cc(C)c2[nH]c(=O)c(CN(CCCO)C3(c4nnnn4C4CCCC4)CCCC3)cc2c1	-10.4	-12.8	105.0	102.0
63	O=C(CC12CC3CC(CC(Br)(C3)C1)C2)NC1CCCC1	-2.5	/	101.0	105.0
64	CN(CC(=O)NC(=O)NC1CCCCC1)Cc1nc2ccccc2c(=O)[nH]1	-1.4	-7.1	97.0	104.0

In another format: results already given.
61. CCCN(S(=O)(=O)c1ccccc1F)S(=O)(=O)c1ccccc1Br
  MbtI inh = -2.9; Mtb MenB inh = -11.0; Polio RdRp inh = 100.0; Polio RdRp inh intensity = 107.0
62. Cc1cc(C)c2[nH]c(=O)c(CN(CCCO)C3(c4nnnn4C4CCCC4)CCCC3)cc2c1
  MbtI inh = -10.4; Mtb MenB inh = -12.8; Polio RdRp inh = 105.0; Polio RdRp inh intensity = 102.0
63. O=C(CC12CC3CC(CC(Br)(C3)C1)C2)NC1CCCC1
  MbtI inh = -2.5; Mtb MenB inh = /; Polio RdRp inh = 101.0; Polio RdRp inh intensity = 105.0
64. CN(CC(=O)NC(=O)NC1CCCCC1)Cc1nc2ccccc2c(=O)[nH]1
  MbtI inh = -1.4; Mtb MenB inh = -7.1; Polio RdRp inh = 97.0; Polio RdRp inh intensity = 104.0

The listing continues:
No.	mol	MbtI inh	Mtb MenB inh	Polio RdRp inh	Polio RdRp inh intensity
65	O=S(=O)(c1ccccc1)N1CCN(CC2CC=CCC2)CC1 (configuration not stated)	-19.3	-16.0	99.0	102.0
66	CCn1nnc2cc(C(=O)Nc3ccc(S(=O)(=O)C(F)F)cc3)ccc21	-5.3	-17.7	113.0	126.0
67	CN(C)C1(CNC(=S)NCc2ccccc2)CCCCC1	-5.4	-2.9	103.0	107.0
68	Cc1ccc(CC2C(=O)N(c3cccc(C(F)(F)F)c3)C(=O)C2C)cc1 (configuration not stated)	10.9	7.5	104.0	98.0
69	CCOc1ccc(CCNS(=O)(=O)c2ccc3c(c2)CCN3C(=O)C2CC2)cc1OCC	-0.1	-32.9	102.0	101.0
70	CC(=O)N=c1nc(-c2ccccc2)n(-c2ccccc2)s1	-3.3	/	102.0	105.0
71	CCOC(=O)[C@@H]1CSC2C3SC[C@@H](C(=O)OCC)N3CCN21 (some centres not stated)	-10.2	-1.5	104.0	105.0
72	CC(=O)O[C@@H]1CC2C(C)(C)C(=O)C=C[C@]2(C)C2CC[C@@]3(C)[C@H](c4ccoc4)OC(=O)[C@H]4O[C@]43[C@@]21C (some centres not stated)	-12.2	-8.3	102.0	99.0
73	CC1(C)OC(=O)C(=Cc2cc(Br)c(O)c(Br)c2)C(=O)O1	12.6	-8.4	103.0	103.0
74	CSc1ccc(/C=N/n2c(=O)oc3ccccc3c2=O)cc1	20.1	5.9	107.0	110.0
75	CN(C)S(=O)(=O)c1cccc(COC(=O)C2=COCCO2)c1	-2.5	4.9	102.0	109.0
76	O=C(COC(=O)Cc1ccsc1)Nc1ccc(Cl)c(C(F)(F)F)c1	-6.4	/	101.0	105.0
77	CN(C)c1ccc(-c2nc(-c3ccccc3)c(-c3ccc(O)cc3)[nH]2)cc1	101.7	7.7	102.0	100.0
78	CCc1ccc(OCc2nnc(SCCC#N)n2C(C)c2ccccc2)cc1 (configuration not stated)	1.7	-50.7	101.0	100.0
79	Cc1ccc(CC(=O)NCC(c2ccco2)N(C)C)cc1C (configuration not stated)	-5.6	-36.1	110.0	114.0
80	CN1CCN(C(=O)C2CCCCC2C(=O)O)CC1 (configuration not stated)	-0.8	5.1	99.0	100.0
81	COc1ccc(OCC(O)CNC(=S)Nc2ccc3c(c2)OCO3)cc1 (configuration not stated)	-4.8	-34.6	102.0	103.0
82	O=S1(=O)C=C(N2CCCC2)c2ccccc21	3.0	6.6	101.0	102.0
83	CN(CCc1ccccn1)C(=S)NCc1ccccc1	1.5	15.4	100.0	105.0
84	CN1C(=O)C2(C(C#N)=C(N)Oc3cc(O)ccc32)c2ccccc21 (configuration not stated)	-14.9	-23.2	103.0	103.0

Entries from the list above that have a furan ring, fused or not (twelve):
No.	mol	MbtI inh	Mtb MenB inh	Polio RdRp inh	Polio RdRp inh intensity
4	CC(C)NC(=O)/C(C#N)=C/c1ccc(-c2ccc(S(=O)(=O)N3CCOCC3)cc2)o1	-5.0	-173.3	108.0	114.0
5	COc1ccccc1OCc1ccc(C(=O)NCc2ccncc2)o1	15.1	-24.0	101.0	100.0
15	Nc1c(N(C(=O)c2ccc(Br)o2)C2CCCC2)c(=O)[nH]c(=O)n1Cc1ccccc1	1.2	1.1	102.0	109.0
16	O=C(Cc1coc2ccc3ccccc3c12)NCc1ccco1	68.6	-67.3	102.0	100.0
25	CC(=O)Oc1cccc(/C=C2\N=C(c3ccco3)OC2=O)c1	0.2	3.9	103.0	100.0
29	CN(CC(=O)Nc1ccc(F)c(F)c1F)C(=O)/C=C/c1ccco1	-5.2	-3.2	96.0	97.0
33	Cc1nn(Cc2c(Cl)cccc2Cl)c(C)c1CNCC(c1ccco1)N1CCCC1 (configuration not stated)	4.8	23.8	97.0	101.0
47	COc1ccc2cc(Br)ccc2c1CC(=O)NCc1ccco1	10.9	-11.2	101.0	103.0
51	COc1ccc2[nH]c3c(=O)n(CC(=O)NCc4ccco4)c(=S)[nH]c3c2c1	8.4	3.4	99.0	105.0
57	CC1=CC(=C2C(=O)NC(=S)NC2=O)C=C(C)N1Cc1ccco1	-1.5	-56.4	106.0	106.0
72	CC(=O)O[C@@H]1CC2C(C)(C)C(=O)C=C[C@]2(C)C2CC[C@@]3(C)[C@H](c4ccoc4)OC(=O)[C@H]4O[C@]43[C@@]21C (some centres not stated)	-12.2	-8.3	102.0	99.0
79	Cc1ccc(CC(=O)NCC(c2ccco2)N(C)C)cc1C (configuration not stated)	-5.6	-36.1	110.0	114.0
